# Screens: PubChem, National Center for Advancing Translational Sciences (NCATS)
# PINK1 modulator: changes PINK1 expression; PINK1 immunofluorescence, high-content cytometry, 24 h; Potency, µM (top dose mostly 76.6 µM), for the others: top-dose activation (PINK1 increase), hits mostly activators; 410,000 tested, 0.2% active; active = well fitted activation curve with a large enough effect; inconclusive = small, poorly fitted or top-dose-only effect; inactive = flat fitted curve, though single readings scatter; cell line not stated here;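 further: potency means the concentration at half of the fitted maximal effect; % of control where 0% means no effect; nearly all actives have a fitted effect of over 65% in size; a mitochondrial uncoupler was the plate control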
#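 PINK1 protein, normally rapidly degraded, was detected by immunofluorescence after 24 hour compound treatment of a stable cell line. Titration data (5 concentrations) came from laser-scanning cytometry, with CCCP-treated wells as controls.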
# D2 PAM: human D2 receptor positive allosteric modulation | AID 624464 | potentiation, % (no concentration beside the values) | DiscoveRx D2 beta-arrestin cells, luminescence, 90 min; 100% = 57 uM dopamine signal | P14416 | 360,000 tested, 0.23% active; active = potentiation of 50% or more; inconclusive = 30% to 50%; inactive = 30% or less;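 further: compound concentration not given in the record; tested on top of an EC20 dose of dopamine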
#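 D2 cells co-treated with compound plus 50 nM dopamine (EC20) for 90 min at 37 deg C to detect potentiation. Beta-arrestin recruitment was read as enzyme-fragment luminescence after 1 h at ambient temperature. Full response was set by 57 uM dopamine.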
# TRPML1 agonist: activates the human TRPML1 channel; Q9GZU1; 410,000 tested, 0.12% active; activation, % (concentration not given with the values); TRPML1-expressing cells, Ca2+ dye fluorescence, FDSS; host cell line not named in the record; reference of the full effect not given here; in the data active = activation above about 50%; inconclusive = about 30% to 50%; inactive = below about 30%; further: 0% is about no effect; the text of the record puts the active cut at 80%
#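 Agonist activity was taken from a 110 s kinetic Ca2+ dye read on the FDSS after pinning compounds onto TRPML1-DL cells. The cells were seeded at 1,500/well with Tet inducer, incubated about 16 h, then dye-loaded at room temperature.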
# Six1-Eya2 inh: Six1/Eya2 interaction inhibition | Q15475+O00167 | AlphaScreen GST-Six1/His-Eya2 binding, biochemical; active compounds read low; control for the full effect not named in the record | activity change, % (no concentration beside the values) | 360,000 tested, 0.56% active | AID 651725; in the data active = activity change below about -65%; inconclusive = about -30% to -65%; inactive = above about -30%; further: on the % scale 0 is the no-effect control and ±100 the full control effect
# Target sequence (O00167 whole entry, looked up): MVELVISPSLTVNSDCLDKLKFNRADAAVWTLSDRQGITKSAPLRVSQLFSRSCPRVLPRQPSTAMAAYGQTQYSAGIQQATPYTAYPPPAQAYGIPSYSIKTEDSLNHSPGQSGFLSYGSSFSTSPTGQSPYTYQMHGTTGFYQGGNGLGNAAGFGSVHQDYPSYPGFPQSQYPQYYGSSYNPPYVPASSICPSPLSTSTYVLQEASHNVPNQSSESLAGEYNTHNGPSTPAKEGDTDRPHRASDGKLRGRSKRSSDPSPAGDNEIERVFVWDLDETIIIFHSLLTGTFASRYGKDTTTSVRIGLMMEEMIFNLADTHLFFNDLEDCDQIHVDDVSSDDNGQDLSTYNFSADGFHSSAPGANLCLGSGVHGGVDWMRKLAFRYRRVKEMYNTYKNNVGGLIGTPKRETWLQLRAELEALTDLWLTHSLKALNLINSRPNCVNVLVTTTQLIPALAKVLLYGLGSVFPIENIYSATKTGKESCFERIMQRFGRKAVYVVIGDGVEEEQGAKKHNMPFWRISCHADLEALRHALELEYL
# Target sequence (Q15475 whole entry, looked up): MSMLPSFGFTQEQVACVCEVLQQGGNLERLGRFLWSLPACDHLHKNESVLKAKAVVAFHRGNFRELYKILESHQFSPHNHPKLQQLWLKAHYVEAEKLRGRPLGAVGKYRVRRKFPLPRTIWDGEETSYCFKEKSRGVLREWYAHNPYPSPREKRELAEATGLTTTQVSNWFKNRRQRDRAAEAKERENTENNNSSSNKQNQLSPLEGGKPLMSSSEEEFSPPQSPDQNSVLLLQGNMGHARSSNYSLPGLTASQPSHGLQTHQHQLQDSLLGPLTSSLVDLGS
#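 GST-Six1 + His-Eya2 (5X stock: 250/500 nM); Tris pH 8.0, 300 mM NaCl, 0.05% BSA, 0.02% Tween 20; GSH donor/Ni acceptor beads; 1 h 37 °C dark; AlphaScreen readout.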
# D2 ag: agonists of human D2 dopamine receptor (beta-arrestin); AID 624465; 360,000 tested, 0.084% active; P14416; activation, % (test concentration not listed); DiscoveRx PathHunter D2 beta-arrestin, luminescence, 90 min; 100% = 57 uM dopamine signal; in the data active = activation above about 40%; inconclusive = about 15% to 40%; inactive = below about 15%; further: compound concentration not given in the record; the text of the record calls up to 30% inactive
#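 DiscoveRx PathHunter D2 beta-arrestin cells (2,100/well) attached overnight, then compound-stimulated 90 min at 37 C in HBSS/10 mM HEPES/0.1% Tween-20 buffer; beta-galactosidase complementation read by luminescence after 1 h at ambient temperature. Dopamine 57 uM final (EC100) as control.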
# CtBP-E1A blk: CtBP/E1A binding inhibition | AlphaScreen GST-E1A/His-CtBP binding, 1536-well; active compounds read low; control for the full effect not named in the record | activity change, % (no concentration beside the values) | 340,000 tested, 0.49% active | AID 651724; in the data active means activity change below about -65%; inconclusive means about -30% to -65%; inactive means above about -30%; further: on the % scale 0 is the no-effect control and ±100 the full control effect
#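 Protein mix (5X: 125 nM each GST-E1A, His-CtBP) was incubated with pinned compound 2 h at 37 deg C in dark, in 50 mM Tris pH 8.0 buffer with 300 mM NaCl. Glutathione donor and nickel acceptor beads followed; AlphaScreen signal read after 1 h.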
# An asterisk follows results filed as active; ? = inconclusive; · = not tested or not shown; [ ] = dose if it differs, or a comment.
canonical_smiles,D2 ag,CtBP-E1A blk,Six1-Eya2 inh,TRPML1 agonist,D2 PAM,PINK1 modulator
CCOC(=O)c1c(-c2ccccc2)oc2cc(Br)c(O)cc12,-0.8,-1,-1,4.9,1,1.3%
O=C(COC(=O)Cc1n[nH]c(=O)c2ccccc12)Nc1ncc(Cl)cc1Cl,-2.6,·,-10,-1.6,-13,2.0%
O=C(COC(=O)/C=C/c1cccc(F)c1)NCc1ccc2c(c1)OCO2,1.9,6,5,-0.6,3,-0.1%
Cc1ccc(CSCC(=O)N(C)CC(=O)Nc2ccccc2Cl)cc1,-0.5,0,7,0.1,1,4.7%
O=C(NC1CC1)c1ccc(CSCc2ccc(Cl)cc2)o1,-2.0,-1,1,-0.2,-17,1.4%
O=C(CN1CCOCC1)N1CCOCC1,0.2,-10,-19,-0.4,-4,0.4%
COc1cccc(C(=O)/C=C/Nc2ccc(S(=O)(=O)Nc3cnc4ccccc4n3)cc2)c1,1.9,-3,2,0.6,-5,3.8%
O=C(COc1ccc(C(=S)N2CCOCC2)cc1)Nc1ccccc1C(F)(F)F,-0.9,-20,2,-0.3,2,0.6%
Cc1cc(=O)n2nc(N3CCC(C(=O)NCc4cccc(Cl)c4)CC3)sc2n1,-3.2,?,-19,0.1,-13,0.4%
CCC1(CC)C(=O)N(c2ccccc2)C(=N)N(c2ccccc2)C1=O,1.4,0,1,-0.4,-36,5.5%
O=C(CCNC(=O)c1ccc(Cl)cc1)NNC(=O)c1ccc(F)cc1,-4.8,-3,11,-0.4,-29,-0.1%
COC(=O)C1CCN(CC(=O)Nc2ccc(C(=O)Nc3ccccc3OC)cc2)CC1,?,-27,-1,-0.1,0,-1.2%
COC(=O)c1ccc(C2/C(=C(/O)c3ccc4c(c3)CC(C)O4)C(=O)C(=O)N2Cc2ccncc2)cc1 (stereo not given),-4.9,6,21,-0.9,1,0.0%
CCOc1ccc2c(c1)C(c1ccc(C)cc1)=NNC(c1ccc(OC)cc1)=N2,-3.9,-30,?,1.8,-3,·
CCN(C(=O)COC(=O)c1nc2nc(C)cc(C)n2n1)C1CCCCC1,-2.8,9,1,2.4,-2,4.1%
COCCn1c(CCc2ccccc2)n[nH]c1=S,1.4,-9,-10,0.2,-8,-0.5%
COc1ccc(C(OC(=O)c2ccco2)C(=O)NC2CCCC2)cc1OC (stereo not given),1.5,1,6,-0.1,-1,0.4%
Nc1ncc2c(n1)-c1cc(Cl)ccc1SC2,-0.8,-17,0,0.4,1,0.3%
Cc1c(OC(C)C(=O)O)ccc2c(-c3ccccc3)cc(=O)oc12 (stereo not given),1.9,·,0,-0.5,-3,0.1%
COc1ccc(S(=O)(=O)N(C)C[C@H]2OCc3cn(nn3)CCCC(=O)N([C@H](C)CO)C[C@@H]2C)cc1,4.3,-4,7,-0.4,10,0.3%
CN1C(C(=O)N2CCc3ccccc3C2)=CC(c2ccc(F)cc2)=NS1(=O)=O,-4.1,·,-15,-0.3,-11,3.0%
Cc1cn([C@H]2C[C@H](O)[C@@H](CCC(=O)NCc3ccc(N(C)C)cc3)O2)c(=O)[nH]c1=O,-1.6,6,7,0.0,6,-2.1%
COc1ccc(N(CC(=O)Nc2cccc(N(C)S(C)(=O)=O)c2)S(=O)(=O)c2ccccc2)cc1Cl,0.7,·,0,2.5,-5,-1.0%
Cc1ccc(S(=O)(=O)N(C)CC(=O)OCC(=O)c2ccc3c(c2)NC(=O)CO3)cc1,2.8,2,6,2.3,3,-0.1%
COC(=O)C/C(C)=N/Nc1ccc(S(=O)(=O)N2CCCC2)cc1[N+](=O)[O-],6.9,·,-16,-1.3,1,1.2%
COc1ccc(C(=O)c2cnc[nH]2)cc1,-3.1,-4,-2,-0.2,-11,0.8%
CCN1CCN(C(=S)NC(=O)/C=C/c2cccs2)CC1,-4.0,·,1,2.6,-30,-0.7%
CCC(=O)Oc1ccc(C(=O)Nc2cccc(C(=O)NCC(C)C)c2)cc1,-1.2,-6,-2,1.5,-10,0.0%
O=C(O)C1=CC[C@@H](c2ccc(Cl)cc2)N(S(=O)(=O)c2ccc(Cl)cc2)[C@H]1c1ccccc1,-1.9,0,0,0.2,-15,-1.0%
O=C(NCC1CCCO1)c1cc2cc(Cl)ccc2[nH]1 (stereo not given),0.2,0,15,0.7,-10,1.4%
Oc1ccc(Br)cc1/C=N/N1CCN(Cc2cccc3ccccc23)CC1,-4.3,·,-3,-0.4,-11,3.3%
COc1cc(CC(=O)NCC2COc3ccccc3O2)cc(OC)c1OC (stereo not given),-6.0,5,1,-0.5,1,0.6%
COc1ccccc1-c1sc2cc3c(cc2c1-c1ccc(OCCN2CCOCC2)cc1)OCO3,?,-23,?,0.4,·,-0.9%
Cc1ccc(C)c(NC(=S)N2C3CCCC2CC(NC(=O)C2CC2)C3)c1 (stereo not given),-2.9,0,-8,-0.2,-11,1.2%
CC(C)C[C@@H]1COc2cccc(N3CCC[C@@H]3CO)c2S(=O)(=O)N1,·,-10,5,1.7,·,-1.2%
CCOC(=O)C1=C(COC(=O)c2ccc([N+](=O)[O-])s2)NC(=O)NC1C (stereo not given),3.4,·,-9,-1.0,-2,0.5%
Cc1ccc(NC(=O)CN(C)C(=O)c2cc3c(s2)CCCCC3)cc1,4.3,2,-3,1.1,0,6.8%
COC(=O)c1ccccc1-c1ccc(/C=N/NC(=O)c2cc3ccccc3o2)o1,-1.7,18,?,1.3,-28,1.8%
Cc1ccc2nc(CSc3nnc(Nc4ccccc4F)s3)cc(=O)n2c1,4.2,2,-8,-0.6,3,21%
CCOC(=O)C(C)c1n[nH]c(=O)c2ccccc12 (stereo not given),-0.6,3,1,-0.6,6,2.4%[38.3 µM]
O=C(CCC(=O)c1ccc(F)cc1)Nc1cccc(S(=O)(=O)Nc2cccc(Cl)c2)c1,1.6,2,-4,4.5,19,8.0%
O=C(CN1CCOCC1)NN=Cc1ccc([N+](=O)[O-])o1,-2.1,-23,1,-0.4,1,4.7%
O=C(CN1CCN(S(=O)(=O)N2CCOCC2)CC1)Nc1cc(Cl)cc(Cl)c1,-6.4,5,0,-1.1,-12,2.0%
O=C(NC(CC(=O)N1CCN(c2ccccc2)CC1)c1ccccc1)c1ccccc1Cl (stereo not given),-1.0,6,3,0.4,-12,2.1%
COC(=O)c1c(C)[nH]c(C(=O)NCc2ccco2)c1C,-1.4,6,-21,-0.7,-10,-0.2%
CCOC(=O)c1csc(NC(=O)c2ccc(S(=O)(=O)N(CC)CC)cc2)n1,-5.1,10,-2,-0.3,3,-0.1%
COc1ccc(C(=O)Nn2c(SCC(=O)NC3CCCC3)nc3ccccc3c2=O)cc1,1.0,-15,-19,3.1,1,1.4%
Cc1ccccc1/C=C1\Sc2ccc(C(=O)N3CCN(c4ccccn4)CC3)cc2N(C)C1=O,4.0,-18,-14,-0.5,2,0.7%

# Single records, from the list above. Order of values: D2 ag	CtBP-E1A blk	Six1-Eya2 inh	TRPML1 agonist	D2 PAM	PINK1 modulator
# Results for `COc1ccc(C(=O)Nn2c(SCC(=O)NC3CCCC3)nc3ccccc3c2=O)cc1` : 1.0	-15	-19	3.1	1	1.4%
# Results for `O=C(CN1CCOCC1)NN=Cc1ccc([N+](=O)[O-])o1` : -2.1	-23	1	-0.4	1	4.7%
# Results for `Cc1ccc(NC(=O)CN(C)C(=O)c2cc3c(s2)CCCCC3)cc1` : 4.3	2	-3	1.1	0	6.8%

# New compounds follow
canonical_smiles,D2 ag,CtBP-E1A blk,Six1-Eya2 inh,TRPML1 agonist,D2 PAM,PINK1 modulator
COc1ccc(-n2c(C)nn(C)c2=O)c(OC)c1,-0.3,5,-3,-0.3,2,-0.4%
COc1ccc(OCC(O)CN2CCN(c3ccc(Cl)cc3)CC2)cc1 (stereo not given),3.8,·,-9,2.9,-1,1.2%
CC(=O)Nc1ccc(C(F)(F)F)cc1Cl,-0.1,12,-10,-0.3,-4,1.1%
CC1CCCN(C(=O)COc2ccc(NC(=O)c3cccs3)cc2)C1 (stereo not given),-1.2,-1,-6,-0.3,-6,1.5%
O=C(Cc1ccc(NC(=O)C2CCN(C(=O)C3CCCC3)CC2)cc1)Nc1cccc(C(=O)N2CCCCC2)c1,0.6,2,-2,-0.8,·,-0.3%
CSc1ccc(NC(=O)C(C)N2CCN(C)CC2)cc1 (stereo not given),1.5,7,6,2.0,-5,-1.9%
CC(C)COc1ccc(C(=O)NC(Cc2c[nH]c3ccccc23)C(=O)NN)cc1 (stereo not given),-4.5,0,-2,4.6,-9,1.2%
Cc1cc(OCc2nc(-c3ccc(NC(=O)c4cccnc4)cc3)no2)ccc1Cl,0.7,3,3,0.6,4,25%[38.3 µM]
Cc1c(NC(=O)c2cccc(NC(=O)COc3ccccc3)c2)c(=O)n(-c2ccccc2)n1C,-2.2,-2,1,0.4,-3,0.2%
CC(C)OC(=O)CSc1nnc(-c2ccc([N+](=O)[O-])cc2)o1,5.0,-1,7,1.1,5,0.1%
Cn1cc(CC(=O)Nc2cccc(C#N)c2)c2ccccc21,-4.4,0,15,-1.1,-3,-0.3%
COCCNC(=S)N(CCc1c(C)[nH]c2ccc(Cl)cc12)Cc1cccs1,1.4,-12,-8,0.7,-1,?
COc1cccc(-c2ncn(CCc3ccccc3OC)c2C(C)C)c1,·,-4,-29,4.8,·,?
O=C(CSc1ncn(-c2ccccc2)n1)Nc1nc2ccccc2s1,-4.3,-12,-5,1.8,-12,1.6%[38.3 µM]
COc1c(F)c(F)c(C(=O)Nc2ccc(-c3nc4ccccc4[nH]3)cc2)c(F)c1F,-3.5,·,6,0.0,-10,3.3%
CCN(C(=O)CSc1nc2ccccc2c(=O)n1C(C)COC)C1CCS(=O)(=O)C1 (stereo not given),3.8,2,2,0.6,4,0.1%
CS/C(=N\S(=O)(=O)c1cccs1)Nc1ccc(F)cc1,1.1,0,17,1.7,23,2.6%
CCN(CC)S(=O)(=O)c1ccc(Cl)c(NC(=O)CSc2nnc(-c3cccs3)o2)c1,-2.6,-3,-4,1.1,-15,4.9%
CCCC(=O)N1CCN(S(=O)(=O)c2cc(Cl)ccc2OC)CC1,-4.3,-2,1,0.9,-2,1.7%
Cc1cc2oc3ccc(NCCC4CCCN4C)cc3c(=O)c2cc1C (stereo not given),1.8,·,0,4.2,-21,-0.3%
CCN(CC)C(=O)c1ccc2sc([C@H]3C[C@H](O)[C@@H](CO)O3)nc2c1,-3.9,9,7,-0.2,-5,0.6%
CCN(CC)S(=O)(=O)c1cc(NC(=O)COC(=O)CCc2nc3ccccc3s2)ccc1C,-0.5,9,-3,2.6,2,-1.3%[38.3 µM]
Cc1cccn2c(=O)c3cc(C(=O)NCCN4CCOCC4)c(=N)n(Cc4cccnc4)c3nc12,-2.0,-26,-21,0.8,-12,-0.1%
